Compound activity (PubChem)
MT1-MMP reporter: MT1-MMP gene expression reporter suppression – cell-based, luciferase reporter, luminescence (AID 618) | MT1-MMP promoter luciferase reporter cells, luminescence | calls from a first round at 10 µM; hits with a dose series show EC50 in µM | actives 0.62% (n = 87,000);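 active means over half of the reporter light lost at 10 µM or EC50 under 50 µM; inactive means the rest and hits that failed the dose series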;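 further: actives suppress MT1-MMP promoter-driven transcription so potencies describe inhibitors; HT1080 fibrosarcoma cells; overnight exposure; toxic or luciferase-blocking compounds were not removed from the actives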
Hsc70 ATP site: small molecules displacing fluorescent ligand from Hsc70 – biochemical, fluorescence polarization, primary screen (AID 568); Hsc70 fluorescence polarization, probe displacement; higher % means a stronger effect; strong numbers were not always called active; displacement, % at 20 µM, or IC50 in µM where a hit was titrated; 83,000 tested, under 10 active;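 active means displacement above 50% without optical interference and an IC50 on retest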;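 further: ATPase domain with a fluorescein-tagged ATP probe; 0% = vehicle and 100% = excess ADP; read after one hour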
WNV NS2B-NS3 inh: inhibitors of West Nile virus NS2B-NS3 protease | P06935 | WNV NS2B-NS3 protease, fluorogenic substrate Ex360/Em465; hits give low values | z-score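 (tested at a level between 10 and 100 µM)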 | actives 0.18% (n = 65,000) | AID 577;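 active means z-score at -3 or under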;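 further: score is relative to mean and spread of the compound wells of a plate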
Target sequence (P06935 1371-1501 limits assumed): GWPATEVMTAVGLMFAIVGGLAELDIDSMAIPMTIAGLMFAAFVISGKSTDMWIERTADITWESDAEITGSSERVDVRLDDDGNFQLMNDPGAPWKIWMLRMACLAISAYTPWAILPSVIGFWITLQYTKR
Target sequence (P06935 1502-1679 limits assumed): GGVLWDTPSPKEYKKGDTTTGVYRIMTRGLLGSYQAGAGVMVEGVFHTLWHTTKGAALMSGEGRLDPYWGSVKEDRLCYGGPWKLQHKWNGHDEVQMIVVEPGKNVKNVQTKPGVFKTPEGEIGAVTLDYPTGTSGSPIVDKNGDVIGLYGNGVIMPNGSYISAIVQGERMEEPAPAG
Active calls of the source: *; & = joins results of further samples. Some of the compounds tested, so the mix of outcomes need not match the whole.

A first look (4 entries):
Screening CCOC(=O)/C(C#N)=C\C1=C(N2CCCC2)CC(C)(CC)OC1 (stereo not given) returned MT1-MMP reporter inactive and Hsc70 ATP site 0.7%.
Screening Cn1c(NC(=O)c2cccs2)cc(=O)n(C)c1=O returned MT1-MMP reporter inactive, Hsc70 ATP site 1.6% and WNV NS2B-NS3 inh 1.3.
For O=C(Nc1ccccc1)OCCNC(=O)c1ccccc1 the results were MT1-MMP reporter inactive, Hsc70 ATP site 7.3% and WNV NS2B-NS3 inh 1.2.
For Cc1ccc2nc(C(C)O)[nH]c2c1 (stereo not given) the results were MT1-MMP reporter inactive and Hsc70 ATP site 0.7%.

Main list, repeating the preview:
Screening CCOC(=O)/C(C#N)=C\C1=C(N2CCCC2)CC(C)(CC)OC1 (stereo not given) returned MT1-MMP reporter inactive and Hsc70 ATP site 0.7%.
Screening Cn1c(NC(=O)c2cccs2)cc(=O)n(C)c1=O returned MT1-MMP reporter inactive, Hsc70 ATP site 1.6% and WNV NS2B-NS3 inh 1.3.
For O=C(Nc1ccccc1)OCCNC(=O)c1ccccc1 the results were MT1-MMP reporter inactive, Hsc70 ATP site 7.3% and WNV NS2B-NS3 inh 1.2.
For Cc1ccc2nc(C(C)O)[nH]c2c1 (stereo not given) the results were MT1-MMP reporter inactive and Hsc70 ATP site 0.7%.
For O=C(N1CCN=C1SCc1cccnc1)C12CC3CC(CC(C3)C1)C2 the results were MT1-MMP reporter inactive, Hsc70 ATP site 2.0% and WNV NS2B-NS3 inh -1.3.
Cc1cccc(C)c1NC(=O)CSCC(=O)c1ccc(O)c(O)c1 was read as MT1-MMP reporter inactive, Hsc70 ATP site -6.5% and WNV NS2B-NS3 inh 0.54.
Screening O=[N+]([O-])c1ccc(C2CNC(c3ccccc3)O2)cc1 (stereo not given) returned MT1-MMP reporter inactive and Hsc70 ATP site 1.7%.
`O=C(Cc1cccc2ccccc12)N/N=C/c1ccc(Sc2cccc3cccnc23)o1` gave MT1-MMP reporter inactive and Hsc70 ATP site -16%.
Screening COc1ccc(Cc2nc(-c3ccc(-n4cccc4)cc3)no2)cc1 returned MT1-MMP reporter inactive, Hsc70 ATP site -4.1% and WNV NS2B-NS3 inh -0.71.
`CS(=O)(=O)N1CCCC(C(=O)NCCCN2CCOCC2)C1` (stereo not given) gave MT1-MMP reporter inactive, Hsc70 ATP site 2.2% and WNV NS2B-NS3 inh -0.67.
`Cc1nc(=O)c(-c2ccccc2)c(C)n1CC1CCCO1` (stereo not given) gave MT1-MMP reporter inactive, Hsc70 ATP site -1.9% and WNV NS2B-NS3 inh 1.1.
`CC(=O)N1CCC2(CC1)C(C#N)=C(N)Oc1c2sc2nc(C)cc(C)c12` gave MT1-MMP reporter inactive, Hsc70 ATP site -3.1% and WNV NS2B-NS3 inh -0.37.
CCn1cc(C(=O)NCc2ccccn2)c(=O)c2cc(S(=O)(=O)N3CCCCC3)ccc21 was read as MT1-MMP reporter inactive, Hsc70 ATP site 30% and WNV NS2B-NS3 inh -0.46.
COC(=O)CNC(=O)COC(=O)C(Cc1ccccc1)NC(=O)c1ccco1 (stereo not given) was read as MT1-MMP reporter inactive, Hsc70 ATP site 4.2% and WNV NS2B-NS3 inh -0.2.
`CCCCSC(=O)Nc1ccccc1` gave MT1-MMP reporter inactive, Hsc70 ATP site 4.1% and WNV NS2B-NS3 inh -0.21.
For CCC(C)[C@H](NC(=O)NCc1cccs1)C(=O)O (stereo not given in full) the results were MT1-MMP reporter inactive, Hsc70 ATP site 1.1% and WNV NS2B-NS3 inh 0.02.
Cc1cc(S(=O)(=O)N(Cc2ccc(F)cc2)CC2CCCO2)ccc1-n1cnnn1 (stereo not given) was read as MT1-MMP reporter inactive, Hsc70 ATP site -7.2% and WNV NS2B-NS3 inh 0.16.
Screening O=C(OCC(=O)N1CCCC1)c1ccco1 returned MT1-MMP reporter inactive, Hsc70 ATP site -0.3% and WNV NS2B-NS3 inh -0.47.
Screening O=C(Cc1ccccc1)Nc1ccccc1CO returned MT1-MMP reporter inactive, Hsc70 ATP site -2.1% and WNV NS2B-NS3 inh 1.5.
`CCOc1cc(NS(C)(=O)=O)c(OCC)cc1NC(=O)c1cccs1` gave MT1-MMP reporter inactive, Hsc70 ATP site 2.2% and WNV NS2B-NS3 inh -0.11.
Screening CC(C)CN(C(=O)CSc1nncs1)c1c(N)n(CC(C)C)c(=O)[nH]c1=O returned MT1-MMP reporter inactive and Hsc70 ATP site 2.6%.
For CN1CCC(C2(O)c3ccccc3CSc3sccc32)CC1 (stereo not given) the results were MT1-MMP reporter inactive and Hsc70 ATP site 1.1%.
For O=C(Cn1c(CN2CCCCC2)nc2ccccc2c1=O)NCc1ccco1 the results were MT1-MMP reporter inactive, Hsc70 ATP site 4.1% and WNV NS2B-NS3 inh -1.3.
CCOC(=O)Cc1nnc2c(Nc3ccc(C)cc3)nc3nonc3n12 was read as MT1-MMP reporter inactive, Hsc70 ATP site 0.2% and WNV NS2B-NS3 inh 1.3.
For CC(=O)OCC(=O)Nc1ccc(C(C)=O)cc1 the results were MT1-MMP reporter inactive and Hsc70 ATP site -0.2%.
Screening COc1ccc(NC(=O)CCS(=O)(=O)c2ccccc2)c(OC)c1 returned MT1-MMP reporter inactive and Hsc70 ATP site -4.5%.
COc1cc(-c2nnc(-c3cccnc3)o2)cc(OC)c1OC was read as MT1-MMP reporter inactive, Hsc70 ATP site -7.9% and WNV NS2B-NS3 inh 0.99.
Screening CC1CCc2nc(NC(=O)CN3CCN(c4ccccc4)CC3)sc2C1 (stereo not given) returned MT1-MMP reporter inactive, Hsc70 ATP site 3.1% and WNV NS2B-NS3 inh 0.07.
For O=C(CN(Cc1ccco1)C(=O)Cn1nnc(-c2ccc(F)cc2)n1)NC1CCCC1 the results were MT1-MMP reporter inactive, Hsc70 ATP site -7.6% and WNV NS2B-NS3 inh -1.5.
COc1ccc(S(=O)(=O)CCC(=O)Nc2c(C)n(C)n(-c3ccccc3)c2=O)cc1 was read as MT1-MMP reporter inactive, Hsc70 ATP site -2.4% and WNV NS2B-NS3 inh -0.3.
COc1ccc(CCNC(=O)C2CCN(Cc3nc(-c4ccccc4C)oc3C)CC2)cc1OC was read as MT1-MMP reporter inactive, Hsc70 ATP site 1.9% and WNV NS2B-NS3 inh 2.
For CCC(c1nnc(SCc2nc3ccccc3s2)n1Cc1ccccc1)N(C)C (stereo not given) the results were MT1-MMP reporter inactive, Hsc70 ATP site -10% and WNV NS2B-NS3 inh -1.4.
`COc1ccc(CC(=O)n2nc(-c3ccccc3)nc2NCc2ccco2)cc1` gave MT1-MMP reporter inactive, Hsc70 ATP site -7.1% and WNV NS2B-NS3 inh -1.4.
`O=C(c1ccco1)N1CCN(CCCCN2C(=O)c3ccccc3C2=O)CC1` gave MT1-MMP reporter inactive, Hsc70 ATP site 0.5% and WNV NS2B-NS3 inh 0.19.
For Cc1ccc(C)c(C(=O)CSc2n[nH]c(C(C)C)n2)c1 the results were MT1-MMP reporter inactive, Hsc70 ATP site -1.9% and WNV NS2B-NS3 inh 0.33.
`C=CCn1c(SCc2c(C)noc2C)nnc1C1COc2ccccc2O1` (stereo not given) gave MT1-MMP reporter inactive, Hsc70 ATP site 5.3% and WNV NS2B-NS3 inh -0.41.
Cc1cc2nc(C3CCCN(C(=O)NCc4ccccc4)C3)[nH]c2cc1C (stereo not given) was read as MT1-MMP reporter inactive and Hsc70 ATP site -1.1%.
Cn1c(=O)n(Cc2ccc(Cl)cc2)c2ccccc21 was read as MT1-MMP reporter inactive and Hsc70 ATP site 4.2%.
`COCC(=O)N(C)c1nnc(-c2cnccn2)s1` gave MT1-MMP reporter inactive, Hsc70 ATP site 5.7% and WNV NS2B-NS3 inh 0.95.
CCn1c(CC(=O)Nc2ccc(C)cc2)nnc1SCC(=O)N1CCN(c2ccccc2)CC1 was read as MT1-MMP reporter inactive, Hsc70 ATP site 2.4% and WNV NS2B-NS3 inh -0.85.
`Cn1c(=O)n(C)c2cc(NS(C)(=O)=O)ccc21` gave MT1-MMP reporter inactive, Hsc70 ATP site -1.6% and WNV NS2B-NS3 inh 0.47.
`CN1C2C=C3C(C#N)=C(N)C(C#N)(C#N)[C@@H](c4cccc(F)c4)[C@@H]3C1CC2` (stereo not given in full) gave MT1-MMP reporter inactive and Hsc70 ATP site -0.5%.
O=c1[nH]c(Cn2nnc(-c3ccccc3)n2)nc2scc(-c3ccccc3)c12 was read as MT1-MMP reporter inactive, Hsc70 ATP site -13% and WNV NS2B-NS3 inh -1.1.
`Cc1cc(C)nc(NS(=O)(=O)c2ccc(NC(=S)NC(=O)C(C)C)cc2)n1` gave MT1-MMP reporter inactive and Hsc70 ATP site -0.4%.
`CCCCCCNC(=O)Cc1nc2nc(C)cc(C)n2n1` gave MT1-MMP reporter inactive, Hsc70 ATP site -2.5% and WNV NS2B-NS3 inh -1.1.
Screening Cc1cc(C)n(C(=O)CNC(=O)c2ccco2)n1 returned MT1-MMP reporter inactive, Hsc70 ATP site 0.8% and WNV NS2B-NS3 inh 1.3.
Screening Cc1cc(C(=O)CSc2n[nH]c(-c3ccccc3F)n2)c(C)n1Cc1cccs1 returned MT1-MMP reporter inactive and Hsc70 ATP site 3.6%.
Screening C=CCn1c(SCC(=O)Nc2c(C)cccc2C)nnc1-c1cnccn1 returned MT1-MMP reporter inactive, Hsc70 ATP site 0.0% and WNV NS2B-NS3 inh -0.58.
Screening CCCNC(=O)COC(=O)c1ccc(S(=O)(=O)N2CCCCCC2)cc1 returned MT1-MMP reporter inactive, Hsc70 ATP site 0.9% and WNV NS2B-NS3 inh -1.2.
Screening Cc1cc(C(=O)CN2C(=O)NC3(CCCCC3)C2=O)c(C)n1Cc1ccc2c(c1)OCO2 returned MT1-MMP reporter inactive, Hsc70 ATP site -1.9% and WNV NS2B-NS3 inh -1.6.
COC(=O)C(Cc1c[nH]c2ccccc12)NC(C)=O (stereo not given) was read as MT1-MMP reporter inactive and Hsc70 ATP site -0.5%.
Screening COc1ccc(OCC(O)CN2C(=O)NC(C)(C)C2=O)cc1 (stereo not given) returned MT1-MMP reporter inactive, Hsc70 ATP site -2.0% and WNV NS2B-NS3 inh -0.71.
For Cc1ccnc(Nc2nc(-c3c(C)nc4sccn34)cs2)c1 the results were MT1-MMP reporter inactive, Hsc70 ATP site 6.9% and WNV NS2B-NS3 inh -0.4.
`O=C(CSc1nc2ccccc2s1)Nc1nccs1` gave MT1-MMP reporter inactive and Hsc70 ATP site 7.2%.
For Cc1ccc(OCC(=O)Nc2ccc(N3CCCC3)cc2)cc1C the results were MT1-MMP reporter inactive, Hsc70 ATP site -7.8% and WNV NS2B-NS3 inh -0.81.
For CCCOc1cccc(C(=O)Nc2cccc(NC(=O)c3ccco3)c2)c1 the results were MT1-MMP reporter inactive, Hsc70 ATP site 5.0% and WNV NS2B-NS3 inh -0.08.
O=C(COc1nncc2ccccc12)NCCC1=CCCCC1 was read as MT1-MMP reporter inactive, Hsc70 ATP site 0.8% and WNV NS2B-NS3 inh -0.5.
C=CCn1c(SCC(=O)NCC2CCCO2)nnc1C1CCCCC1 (stereo not given) was read as MT1-MMP reporter inactive, Hsc70 ATP site 1.4% and WNV NS2B-NS3 inh -0.26.
Screening CC(=O)Oc1ccc2ccccc2c1C(NC(=O)C(C)C)c1cccc([N+](=O)[O-])c1 (stereo not given) returned MT1-MMP reporter inactive and Hsc70 ATP site 1.4%.
`CC1=C(C(=O)OC(C)C)C(c2cccs2)N2C(=O)CCSC2=N1` (stereo not given) gave MT1-MMP reporter inactive, Hsc70 ATP site 3.0% and WNV NS2B-NS3 inh 0.04.
For CCC(C)(C)C1CCc2c(sc(NC(=O)c3cccs3)c2C(N)=O)C1 (stereo not given) the results were MT1-MMP reporter inactive and Hsc70 ATP site 1.5%.
Screening CCOn1c(=O)c(=O)n(OCc2ccccc2)c2ccccc21 returned MT1-MMP reporter inactive, Hsc70 ATP site -0.1% and WNV NS2B-NS3 inh 0.31.
Screening COC(=O)c1ccc(CSc2nc(C)nc3sc(C)c(C)c23)o1 returned MT1-MMP reporter inactive, Hsc70 ATP site -3.3% and WNV NS2B-NS3 inh 0.58.
`CCC(=O)Nc1nc2c(OC)ccc(C)c2s1` gave MT1-MMP reporter inactive, Hsc70 ATP site -1.0% and WNV NS2B-NS3 inh 1.5.
`Cc1ccc(C(c2sc3ncnn3c2O)N2CCC(C)CC2)cc1` (stereo not given) gave MT1-MMP reporter inactive, Hsc70 ATP site 5.0% and WNV NS2B-NS3 inh 2.9.
CCN(CC)CCOCCOc1cc(C)c(Cl)c(C)c1 was read as MT1-MMP reporter inactive and Hsc70 ATP site 1.1%.
Screening Cc1onc(-c2ccccc2)c1C(=O)OCC(=O)Nc1ccc2c(c1)OCO2 returned MT1-MMP reporter inactive, Hsc70 ATP site -0.4% and WNV NS2B-NS3 inh -0.58.
O=C(COc1ccc(Cl)cc1Cl)NCCCN1CCOCC1 was read as MT1-MMP reporter inactive, Hsc70 ATP site 2.6% and WNV NS2B-NS3 inh -1.4.
For COc1ccc(OC(=O)CCCN2C(=O)c3ccccc3C2=O)cc1 the results were MT1-MMP reporter inactive, Hsc70 ATP site 5.9% and WNV NS2B-NS3 inh 0.07.
`CCOC(=O)C1CCN(S(=O)(=O)c2cn(C)c(=O)n(C)c2=O)CC1` gave MT1-MMP reporter inactive, Hsc70 ATP site 1.2% and WNV NS2B-NS3 inh -1.3.
O=C(Nc1cccc2nsnc12)c1cccs1 was read as MT1-MMP reporter inactive, Hsc70 ATP site -2.7%&-9.2% and WNV NS2B-NS3 inh 0.35&0.78.
